# NOMO-1 viab – NOMO-1 AML cell viability reduction, primary screen, STK33 inhibitor project, CellTiter-Glo luminescence | NOMO-1 AML viability, 72 h | inhibition, % (concentration not given with the values) | 7.5% of 37,000 active | AID 2330, 2010;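 active means most replicates above 80%; inconclusive means exactly half above 80%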;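 further: wells of about 30 µL received 25 nL stock; 0% = median of vehicle wells and 100% = reference inhibitor level; the first replicate is given; inactives centre near 10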
# The depositor's hits bear a star; ? = inconclusive. Not all compounds are listed; rates above refer to the full screens.
structure | NOMO-1 viab
C[C@H]1CN([C@@H](C)CO)C(=O)c2cccc(NS(=O)(=O)c3cccs3)c2O[C@H]1CN(C)S(C)(=O)=O | 3
C[C@@H]1CN([C@@H](C)CO)C(=O)c2cccc(NC(=O)Nc3ccc4c(c3)OCO4)c2O[C@H]1CN(C)C(=O)Nc1ccc(F)cc1 | -6
O=C(CCn1cnc2ccccc2c1=O)Nc1ccccc1Br | -11
O=C(COc1ccccc1[N+](=O)[O-])Nc1ccc2oc(-c3cccc(Br)c3)nc2c1 | 25
C[C@@H]1CCCCO[C@H](CN(C)S(=O)(=O)c2ccc(Cl)cc2)[C@@H](C)CN([C@H](C)CO)C(=O)c2cc(NC(=O)C3CCCCC3)ccc2O1 | 6
C[C@@H]1CN([C@@H](C)CO)C(=O)c2cc(NC(=O)Nc3ccc4c(c3)OCO4)ccc2O[C@@H]1CN(C)C(=O)Nc1ccccc1 | 12
C[C@H]1CN([C@@H](C)CO)C(=O)c2cc(NC(=O)Nc3ccc4c(c3)OCO4)ccc2O[C@H]1CN(C)S(=O)(=O)c1cccs1 | 26
CCOC(=O)c1cc(C#N)c(Sc2ccc(C)cc2)nc1C(F)(F)F | ?
CSC(N)=Nc1c(Cl)cccc1Cl | 21
C[C@@H]1CN([C@H](C)CO)C(=O)c2cc(NC(=O)CCN3CCOCC3)ccc2O[C@@H]1CN(C)S(=O)(=O)c1ccc(Cl)cc1 | 5

# Of the compounds above, these contain four or more nitrogen atoms.
structure | NOMO-1 viab
C[C@@H]1CN([C@@H](C)CO)C(=O)c2cccc(NC(=O)Nc3ccc4c(c3)OCO4)c2O[C@H]1CN(C)C(=O)Nc1ccc(F)cc1 | -6
C[C@@H]1CN([C@@H](C)CO)C(=O)c2cc(NC(=O)Nc3ccc4c(c3)OCO4)ccc2O[C@@H]1CN(C)C(=O)Nc1ccccc1 | 12
C[C@H]1CN([C@@H](C)CO)C(=O)c2cc(NC(=O)Nc3ccc4c(c3)OCO4)ccc2O[C@H]1CN(C)S(=O)(=O)c1cccs1 | 26
C[C@@H]1CN([C@H](C)CO)C(=O)c2cc(NC(=O)CCN3CCOCC3)ccc2O[C@@H]1CN(C)S(=O)(=O)c1ccc(Cl)cc1 | 5

# The list goes on.
structure | NOMO-1 viab
C[C@@H]1CN([C@@H](C)CO)C(=O)c2cc(NC(=O)Cc3ccccc3)ccc2O[C@H]1CN(C)Cc1ccncc1 | 7
O=C(Cn1cnc2ccccc2c1=O)Nc1cccc(C(=O)c2ccccc2)c1 | 10
Cc1noc(C)c1NC(=O)Nc1ccc2c(c1)CC(=O)N([C@H](C)CO)C[C@H](C)[C@H](CN(C)C(=O)Nc1cccc3ccccc13)O2 | 5
C[C@H](CO)N1C[C@H](C)[C@H](CN(C)C(=O)Nc2ccc3c(c2)OCO3)Oc2ccc(NS(=O)(=O)c3ccc(F)cc3)cc2C1=O | 9
COc1ccc(S(=O)(=O)Nc2cccc3c2O[C@@H](CN(C)S(=O)(=O)c2ccccc2)[C@H](C)CN([C@H](C)CO)C3=O)cc1 | -4
NC(=O)CSc1nnc(-c2ccccc2O)n1-c1ccccc1 | 2
CC(C)NC(=O)N(C)C[C@H]1Oc2c(NC(=O)NC3CCCCC3)cccc2C(=O)N([C@H](C)CO)C[C@H]1C | -7
C[C@H]1CN([C@@H](C)CO)C(=O)c2cc(NC(=O)CCN3CCOCC3)ccc2O[C@@H]1CN(C)S(=O)(=O)c1cn(C)cn1 | -8
O=C(O)Cc1ccc(NC(=O)c2cccnc2C(=O)O)cc1 | 0
CS(=O)(=O)N(CC(=O)Nc1ccc2ccccc2c1)c1cccc2ccccc12 | 39
C[C@H]1CN([C@@H](C)CO)C(=O)c2cc(NC(=O)CCN3CCOCC3)ccc2O[C@@H]1CN(C)C(=O)Nc1cccc2ccccc12 | -6
CCn1c(SCC(=O)Nc2ccc3c(c2)OCCO3)nnc1-c1ccccc1O | -3
CC1(C)CC(=O)C2=C(C1)N(CCN1CCOCC1)C1=C(C(=O)CC(C)(C)C1)C2c1cccc(Cl)c1 | 14
C[C@@H]1CN([C@@H](C)CO)C(=O)Cc2cc(NS(C)(=O)=O)ccc2O[C@@H]1CN(C)Cc1ccc(-c2ccccc2)cc1 | 20
C[C@@H]1CN([C@@H](C)CO)C(=O)c2cc(NC(=O)CCCN(C)C)ccc2O[C@@H]1CN(C)C(=O)Nc1cccc2ccccc12 | -7
CCOC(=O)Nc1ccc2c(c1)nc(CN1CCOCC1)n2C | 29
C[C@@H]1CN([C@@H](C)CO)C(=O)Cc2cc(NC(=O)CCCCCC(=O)Nc3ccccc3N)ccc2O[C@@H]1CN(C)C(=O)NC1CCCCC1 | 8
CCN(CC)C(=O)c1sc(NC(=S)Nc2nc(C)cc(C)n2)c(C(=O)OC)c1C | 44
C[C@@H]1CN([C@@H](C)CO)C(=O)c2cc(NC(=O)C3CC3)ccc2O[C@@H]1CN(C)S(=O)(=O)c1cccs1 | -1
C[C@@H]1CN([C@H](C)CO)C(=O)Cc2cc(NC(=O)Cc3cn(C)c4ccccc34)ccc2O[C@@H]1CN(C)S(=O)(=O)c1ccc(Cl)cc1 | 8
C[C@H]1CN([C@@H](C)CO)C(=O)Cc2cc(NC(=O)C3CCCCC3)ccc2O[C@@H]1CN(C)Cc1ccc(Oc2ccccc2)cc1 | 52
Cc1cc(C)c(C#N)c(SCC(O)CNc2ccc(Cl)cc2)n1 (configuration not stated) | 27
O=C(c1ccccc1Br)N1CCN(c2ccc([N+](=O)[O-])c(NCc3cccnc3)c2)CC1 | 40
Cc1ccc(OCCCSc2nc(C)cc(=O)[nH]2)c(I)c1 | 15
C[C@H]1CN([C@@H](C)CO)C(=O)Cc2cc(NC(=O)CCC(F)(F)F)ccc2O[C@@H]1CN(C)S(=O)(=O)c1cccs1 | 27
C[C@@H]1CN([C@H](C)CO)C(=O)c2cc(NC(=O)Cc3ccccc3)ccc2O[C@@H]1CN(C)Cc1ccc(C(=O)Nc2ccccc2N)cc1 | 105*
C[C@@H]1CN([C@H](C)CO)C(=O)c2cc(NS(=O)(=O)c3ccc(Cl)cc3)ccc2O[C@H]1CN(C)S(=O)(=O)c1ccc(Cl)cc1 | 26
C[C@@H]1CN([C@H](C)CO)C(=O)Cc2cc(NS(=O)(=O)c3cn(C)cn3)ccc2O[C@@H]1CN(C)Cc1ccc(C(=O)O)cc1 | 13
Cc1noc(C)c1NC(=O)N(C)C[C@H]1Oc2ccc(N(C)C)cc2C(=O)N([C@@H](C)CO)C[C@H]1C | -13
Cc1sc2ncnc(NCCOCCO)c2c1C | 13
Cc1noc(C)c1S(=O)(=O)Nc1ccc2c(c1)C(=O)N([C@H](C)CO)C[C@@H](C)[C@@H](CN(C)Cc1ccc(C(F)(F)F)cc1)O2 | 53
C[C@H]1CN([C@@H](C)CO)C(=O)c2cccc(NS(=O)(=O)c3ccc(Cl)cc3)c2O[C@H]1CN(C)Cc1ccc(C(=O)O)cc1 | 12
C[C@@H]1CN([C@@H](C)CO)C(=O)c2cc(NS(=O)(=O)c3cccs3)ccc2O[C@H]1CN(C)CC1CC1 | 14
C[C@H](CO)N1C[C@H](C)[C@@H](CN(C)C)Oc2c(NC(=O)Nc3ccccc3)cccc2C1=O | -17
COc1ccc(-c2cc(-c3ccccc3)c(-c3ccccc3)nn2)cc1CN1CCOCC1 | 13
O=C1c2ccccc2C(=O)N1CC1OCc2ccccc2CO1 | -10
C[C@H]1CN([C@@H](C)CO)C(=O)c2cc(NS(=O)(=O)c3ccc(F)cc3)ccc2O[C@@H]1CN(C)S(C)(=O)=O | 12
O=C(COc1ccc(C(=O)Nc2cccc(C(F)(F)F)c2)cc1)Nc1ccccc1F | -6
COc1ccc(S(=O)(=O)N(C)C[C@@H]2Oc3ccc(NC(=O)NC4CCCCC4)cc3CC(=O)N([C@H](C)CO)C[C@@H]2C)cc1 | 12
Cc1noc(C)c1NC(=O)Nc1ccc2c(c1)CC(=O)N([C@H](C)CO)C[C@H](C)[C@H](CN(C)S(=O)(=O)c1ccc(F)cc1)O2 | 29
O=C(Nc1cccc(Br)c1)c1cccc2c1C(=O)c1ccccc1-2 | 102*
N#CCC(=O)NC(=O)NC12CC3CC(CC(C3)C1)C2 | 19
Cc1noc(C)c1S(=O)(=O)N(C)C[C@@H]1Oc2ccc(NS(=O)(=O)c3ccc(Cl)cc3)cc2CC(=O)N([C@H](C)CO)C[C@@H]1C | 21
COC(=O)c1cn(CC(=O)NCC2CCCO2)c2ccccc12 (configuration not stated) | 3
C[C@@H]1CN([C@H](C)CO)C(=O)Cc2cc(NS(=O)(=O)c3cn(C)cn3)ccc2O[C@H]1CN(C)Cc1ccncc1 | 1
Nc1nnc(SCC(=O)c2ccc3ccccc3c2)s1 | -9
Cc1cc(NC(=O)c2cc(-c3ccccc3)on2)n(-c2ccccc2)n1 | -3
C[C@@H]1CN([C@H](C)CO)C(=O)c2cccc(NS(=O)(=O)c3cccs3)c2O[C@@H]1CN(C)Cc1ccncc1 | 21
C[C@@H]1CN([C@@H](C)CO)C(=O)Cc2cc(NS(=O)(=O)c3cn(C)cn3)ccc2O[C@@H]1CN(C)S(C)(=O)=O | 2
Cc1ccc(C(=O)CSc2ncnc3sc4c(c23)CCCC4)cc1C | 0

# Reprinted at random: two records from the list.
structure | NOMO-1 viab
Cc1noc(C)c1S(=O)(=O)N(C)C[C@@H]1Oc2ccc(NS(=O)(=O)c3ccc(Cl)cc3)cc2CC(=O)N([C@H](C)CO)C[C@@H]1C | 21
C[C@@H]1CN([C@H](C)CO)C(=O)c2cccc(NS(=O)(=O)c3cccs3)c2O[C@@H]1CN(C)Cc1ccncc1 | 21

# The listing continues:
structure | NOMO-1 viab
CC(C)NC(=O)N(C)C[C@H]1Oc2c(NC(=O)c3ccc(-c4nccs4)cc3)cccc2C(=O)N([C@@H](C)CO)C[C@H]1C | 7
CC(=O)Nc1ccc(S(=O)(=O)N2CCCC2C(=O)O)cc1 (configuration not stated) | 27
COc1ccc(S(=O)(=O)Nc2ccc3c(c2)C(=O)N([C@H](C)CO)C[C@H](C)[C@@H](CN(C)C(=O)c2ccccc2)OCCCC[C@@H](C)O3)cc1 | 33
C[C@@H]1CCCCO[C@@H](CN(C)Cc2ccc3c(c2)OCO3)[C@@H](C)CN([C@H](C)CO)C(=O)c2cc(NC(=O)CCCN(C)C)ccc2O1 | 9
C[C@@H]1CN([C@H](C)CO)C(=O)c2cc(NC(=O)CCN3CCOCC3)ccc2O[C@@H]1CN(C)Cc1ccc2c(c1)OCO2 | -12
CSc1nc(C)cc(NC(N)=O)n1 | 27
CC(C)NC(=O)Nc1ccc2c(c1)CC(=O)N([C@@H](C)CO)C[C@H](C)[C@@H](CN(C)C(=O)Nc1ccc(F)cc1)O2 | 9
Cc1cc(-c2ccccc2)nc(SCC(=O)Nc2ccc(SC(F)F)cc2)n1 | 14
C[C@H]1CN([C@@H](C)CO)C(=O)Cc2cc(NS(=O)(=O)c3cccs3)ccc2O[C@H]1CN(C)C(=O)NC1CCCCC1 | 3
C[C@@H]1CN([C@@H](C)CO)C(=O)c2cccc(NS(=O)(=O)c3cn(C)cn3)c2O[C@@H]1CN(C)C(=O)Nc1ccc(C(F)(F)F)cc1 | -18
Cc1ccc(S(=O)(=O)N(C)C[C@@H]2Oc3ccc(NC(=O)Cc4ccccc4)cc3C(=O)N([C@H](C)CO)C[C@H]2C)cc1 | -5
C[C@@H]1CN([C@@H](C)CO)C(=O)c2cccc(NS(=O)(=O)c3ccccc3)c2O[C@@H]1CN(C)Cc1ccc(Oc2ccccc2)cc1 | 25
C[C@@H]1CN([C@@H](C)CO)C(=O)Cc2cc(NC(=O)Cn3cnnn3)ccc2O[C@@H]1CN(C)Cc1ccc(C(=O)O)cc1 | 19
C[C@H](CO)N1C[C@H](C)[C@H](CN(C)Cc2ccc(C(=O)O)cc2)Oc2c(NC(=O)C3CCOCC3)cccc2C1=O | 4
C[C@@H]1CN([C@H](C)CO)C(=O)Cc2cc(NS(=O)(=O)c3cn(C)cn3)ccc2O[C@@H]1CN(C)C(=O)Nc1ccccc1 | -12
C[C@@H]1CN([C@@H](C)CO)C(=O)c2cc(NC(=O)Nc3ccc4c(c3)OCO4)ccc2O[C@H]1CN(C)C(=O)NC1CCCCC1 | 9
C[C@H](CO)N1C[C@H](C)[C@H](CN(C)CC2CCCCC2)Oc2ccc(NC(=O)NC3CCCCC3)cc2C1=O | 21
CC(C)NC(=O)Nc1ccc2c(c1)C(=O)N([C@@H](C)CO)C[C@H](C)[C@@H](CN(C)S(=O)(=O)c1cn(C)cn1)O2 | 14
C[C@@H]1CN([C@@H](C)CO)C(=O)c2cc(NC(=O)CCC(F)(F)F)ccc2O[C@H]1CN(C)S(=O)(=O)c1cn(C)cn1 | -14
COc1ccc(OC)c(NC(=O)CN(c2ccccc2Br)S(C)(=O)=O)c1 | -16
Cc1cc(C)nc(SCCS(=O)(=O)Cc2ccc(Cl)cc2)n1 | 15
C[C@@H]1CN([C@H](C)CO)C(=O)Cc2cc(NC(=O)C3CC3)ccc2O[C@H]1CN(C)S(=O)(=O)c1ccc(Cl)cc1 | 7
C[C@@H]1CN([C@H](C)CO)C(=O)c2cccc(NS(=O)(=O)c3ccc(Cl)cc3)c2O[C@H]1CN(C)C(=O)Nc1ccc2c(c1)OCO2 | -5
C[C@@H]1CN([C@@H](C)CO)C(=O)c2cccc(NC(=O)CCCCCC(=O)Nc3ccccc3N)c2O[C@H]1CN(C)S(C)(=O)=O | 3
COc1ccc(NC(=O)Nc2cccc3c2O[C@@H](CN(C)C(=O)NC(C)C)[C@@H](C)CN([C@@H](C)CO)C3=O)cc1 | -2
CC(=O)Nc1ccc(C(=O)Nc2ccc(S(=O)(=O)Nc3nccs3)cc2)cc1 | -18
C[C@@H]1CN([C@H](C)CO)C(=O)Cc2cc(NC(=O)C3CC3)ccc2O[C@@H]1CN(C)S(=O)(=O)c1ccccc1 | 13
C[C@H](CO)N1C[C@H](C)[C@H](CN(C)S(=O)(=O)c2cn(C)cn2)Oc2c(NS(C)(=O)=O)cccc2C1=O | 3
COC(=O)COc1cccc(NC(=O)c2ccccc2Cl)c1 | 119*
C[C@@H]1CCCCO[C@H](CN(C)S(=O)(=O)c2cccs2)[C@@H](C)CN([C@H](C)CO)C(=O)c2cc(NS(=O)(=O)c3ccc(F)cc3)ccc2O1 | 28
O=C(NCC[n+]1ccc2ccccc2c1)c1ccccc1 | 44
Cc1cc(N(CC(=O)NC(C)C)S(C)(=O)=O)ccc1Br | 15
O=C(Nc1sccc1C(=O)N1CCOCC1)c1cccnc1 | -22

# Bioassay records from PubChem BioAssay.
